# NPYLR7 agonist: mosquito NPYLR7 agonism; HEK293T NPYLR7/Galpha15, GCaMP6s calcium fluorescence; activation, % at 10 µM; 270,000 compounds, 0.15% hits; AID 1259423; in the data active = activation above about 40%;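 note: 0% = vehicle and 100% = reference agonist at the receptor; some compounds past the cut are filed as inactive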
# NPYLR7 agonist max-min: further read-out of NPYLR7 agonist, marked with its call; activation, %; measured here: Max-Min RFU normalised activation; some inactives read as strong as hits;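 span of the calcium signal over five minutes; 0% = vehicle and 100% = native peptide agonist; compound fluorescence can raise it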
# Active calls of the source: *; & = joins results of further samples.
# Sequence of screens – NPYLR7 agonist	NPYLR7 agonist max-min
CCOc1ccc(CN(CC)C(=O)c2ccc3c(=O)n4c(nc3c2)CCC4)cc1OC
  -2	-3
CCCn1cc(C(=O)Nc2nccs2)c2nn(-c3ccccc3)c(=O)c-2c1
  5	3
CCOC(=O)C1=C(C)NC(C)=C(C(=O)OC)C1c1ccc(Br)cc1 (stereo not drawn)
  -2	-3
COc1cccc2c1OCC(C(=O)NCCc1nnc3n1CCNCC3)C2 (stereo not drawn)
  -11	-14
COc1ccc(F)c(-c2nc(CN(CC3CCC(=O)N3)C(C)C)c(C)o2)c1 (stereo not drawn)
  -4	3
COc1ccccc1C1CC(c2cc(C)ccc2C)=NN1C(=O)CN1CCCCC1C (stereo not drawn)
  -1	5
CCN(CC(=O)N1N=C(c2ccc(OC)c(OC)c2)CC1c1ccc(C)cc1)C1CCCCC1 (stereo not drawn)
  0	5
CC(=O)N(C)c1ccc(NC(=O)CNCC(O)c2ccccc2Cl)cc1 (stereo not drawn)
  8	-1
O=C(c1ccc(Cl)nc1)N1CCc2ccccc2C1c1ccccc1F (stereo not drawn)
  -2	8
COc1ccccc1-n1c(SCCCC(=O)N2CCN(C(=O)c3ccc([N+](=O)[O-])cc3)C(C)C2)nnc1-c1ccccc1 (stereo not drawn)
  5	2
CS(=O)(=O)c1ccc(CN2CCN(CCCOC(c3ccc(Cl)cc3)c3ccc(Cl)cc3)CC2)cc1
  25	16
O=C(CCn1nnc2ccccc21)N1[C@H]2CCNC[C@@H]1CC2
  3	2
CCCCCCc1cc2cc(-c3nnc(-c4ccccc4)o3)c(=O)oc2cc1O
  -6	-15
CCOCCn1ccc2c(NC(=O)C(Cl)Cl)c(OC(=O)N(CC)CC)ccc21
  -1	-4
CC(C)(C)c1cc(NC(=O)CSc2nnc3n2CCCCC3)on1
  -1	9
O=C(Cc1ccccc1)Nc1nnc(-c2ccc3c(c2)OCO3)s1
  -1	-5
Cc1ccccc1COc1cn(CC(=O)N2CCN(c3ccccc3)CC2)c(C)cc1=O
  -2	-3
O=C(CN1c2cccc3cccc(c23)S1(=O)=O)NNC(=O)c1ccc[nH]c1=O
  -4	-3
O=c1c2c(nc(SCc3ccc(F)cc3)n1CCc1ccccc1)CCS2
  8	2
N#CC(Cc1ccccc1)NC(=O)/C=C/c1ccccc1Br (stereo not drawn)
  3	-1
CC(C)SC(NC(=O)OCc1ccccc1)C(=O)N[C@H](C)C(C)(C)C (stereo partly drawn)
  0	-7
CC(c1cccc(-c2nnnn2-c2ccccc2)c1)N1CCCC1 (stereo not drawn)
  18	16
Cc1ccc(-n2cc(CN3CCN(c4nonc4C)CC3)c(-c3ccc(F)cc3)n2)cc1
  3	0
COc1ccc(OC)c(C2CC(c3ccc(Cl)cc3)=NN2S(C)(=O)=O)c1 (stereo not drawn)
  -1	3
Cc1ccc(Cl)c(NC(=O)CN2CCc3sccc3C2C)c1Cl (stereo not drawn)
  0	-4
COc1ccccc1C1c2cccn2CCCN1Cc1cccc(Oc2ccccc2)c1 (stereo not drawn)
  8	8
COc1ccc2c(c1)OC1(C)CC2C(S(=O)(=O)c2ccccc2)C(=O)N1 (stereo not drawn)
  10	13
COc1cc(C)c(C)cc1S(=O)(=O)n1cc(C)nc1-c1ccccc1
  5	3
CCCNC(=O)c1ccc(-c2ccccc2CN2CCOCC2)o1
  8	6
CCOC(=O)c1c(NC(=O)CCSC)sc2c1CCC(C#N)(c1ccccc1)C2 (stereo not drawn)
  5	1

# Looked up by structure from the list above:
# Sequence of screens – NPYLR7 agonist	NPYLR7 agonist max-min
O=C(Cc1ccccc1)Nc1nnc(-c2ccc3c(c2)OCO3)s1
  -1	-5
COc1cccc2c1OCC(C(=O)NCCc1nnc3n1CCNCC3)C2 (stereo not drawn)
  -11	-14
COc1ccc(F)c(-c2nc(CN(CC3CCC(=O)N3)C(C)C)c(C)o2)c1 (stereo not drawn)
  -4	3
COc1cc(C)c(C)cc1S(=O)(=O)n1cc(C)nc1-c1ccccc1
  5	3

# Further structures.
# Sequence of screens – NPYLR7 agonist	NPYLR7 agonist max-min
O=C(Nc1ccc2c(c1)CCO2)N1CCC(c2ccccc2)C1 (stereo not drawn)
  0	-1
Cc1ccc(C2(O)CCN(c3noc(-c4ccccc4)n3)CC2)nc1
  -6	-7
CCOCc1ccccc1CNC(=O)NC(C)c1ccc(Cl)cc1 (stereo not drawn)
  8	3
O=C(NCc1ccsc1)c1ccc(-c2cc(-c3cccc(C(F)(F)F)c3)n[nH]2)cc1
  -1	6
CCc1nc2n(n1)C(=O)C(C(c1cccc(F)c1)N1CCN(CC)CC1)S2 (stereo not drawn)
  -1	-8
Cc1nn(-c2ccc(Cl)cc2)cc1C(=O)NC1CC(=O)N(C)C1 (stereo not drawn)
  1	-2
Cc1nnc2ccc(N3CCN(C(=O)COc4cccc(Cl)c4)CC3)nn12
  3	8
Cc1ccccc1NC(=O)Cc1nc(COC(=O)C2(O)CCCC2)cs1
  3	4
CSc1cccc(NC(=O)Cc2csc(NC(=O)c3ccc[nH]c3=O)n2)c1
  10	14
Cn1c(CN(Cc2nc3ccccc3c(=O)[nH]2)CC2CCCO2)cc(=O)n(C)c1=O (stereo not drawn)
  -4	-3

# No new results follow: an excerpt of the list.
# Sequence of screens – NPYLR7 agonist	NPYLR7 agonist max-min
Cc1nnc2ccc(N3CCN(C(=O)COc4cccc(Cl)c4)CC3)nn12
  3	8
Cc1ccccc1NC(=O)Cc1nc(COC(=O)C2(O)CCCC2)cs1
  3	4
CSc1cccc(NC(=O)Cc2csc(NC(=O)c3ccc[nH]c3=O)n2)c1
  10	14
Cn1c(CN(Cc2nc3ccccc3c(=O)[nH]2)CC2CCCO2)cc(=O)n(C)c1=O (stereo not drawn)
  -4	-3

# (listing goes on)
# Sequence of screens – NPYLR7 agonist	NPYLR7 agonist max-min
CC1CN(C(=O)Cn2cc(SCC#N)c3ccccc32)CC(C)O1 (stereo not drawn)
  -2	-6
CC(C)(C)COC(=O)N1CC(=O)N(Cc2ccc3c(c2)OCO3)CC(O)C1 (stereo not drawn)
  3	12
CCn1nc(C)c(C(C)NC(=O)c2cccc(NCC(=O)O)c2)c1C (stereo not drawn)
  16	11
CCNC(=O)OC1CCN(C(=O)OCc2ccccc2)CC(=O)N(C)c2ccccc21 (stereo not drawn)
  7	19
COc1ccc(-c2cc3nc(C)cc(N4CCC(C)CC4)n3n2)cc1OC
  4	3
CNS(=O)(=O)c1cc(-c2ccc(Nc3ccccc3)nn2)ccc1C
  -15	-22
C=CCn1c(SCC(=O)N(C)Cc2ccc(C)cc2)nc2ccsc2c1=O
  2	-3
COC(=O)CCCCCCC(=O)N1CCN(Cc2cc(=O)c(OCc3cc(C)cc(C)c3)co2)CC1
  21	12
Cc1cc(Cl)ccc1C(=O)N1CCCC(O)(CO)CC1 (stereo not drawn)
  20	17
COc1ccc(-c2cccc(-n3cncc3C(=O)NCc3c(-c4ccccc4)noc3C)c2)cc1OC
  23	31

# Overlap with the part before: two entries; new compounds follow.
Compound,NPYLR7 agonist,NPYLR7 agonist max-min
Cc1cc(Cl)ccc1C(=O)N1CCCC(O)(CO)CC1 (stereo not drawn),20,17
COc1ccc(-c2cccc(-n3cncc3C(=O)NCc3c(-c4ccccc4)noc3C)c2)cc1OC,23,31
Cc1ccc(-c2cc(C(=O)Nc3c(C)n(C)n(-c4ccccc4)c3=O)c3ccccc3n2)o1,-3,-2
Cc1cc(C)n2nc(SCCOc3ccc(Br)cc3)nc2n1,8,8
CCc1nccn1C1CCCN(C(=O)CN2CCCS2(=O)=O)C1 (stereo not drawn),-5,-5
CNc1cc(C(=O)N[C@@H]2C[C@@H](CO)N(C)C2)ccn1,9,9
O=C(CCc1nnc(CCCc2ccccc2)o1)NCC(F)(F)F,1,1
O=C(Nc1ccccc1F)N1CCN(C(=O)N2CCOCC2)CC1,5,4
O=C(COC(=O)c1cc(Br)c(Br)s1)NCC(F)(F)F,9,8
Cc1cnc(N2CCN(C(=O)CC(C)C)CC2)nc1N(C)C,3,12
CC1=C(C(=O)OCC(C)C)C(c2cccs2)n2c(sc(=Cc3ccc(C)o3)c2=O)=N1 (stereo not drawn),-2,-3
Cc1ccc(F)c(S(=O)(=O)NC(=O)C2(C)CCN2C(=O)C(C)(C)c2ccccc2)c1 (stereo not drawn),7,6
COc1ccc(CCNC(=O)CN(C)C2CCOC(C)(C)C2)cc1 (stereo not drawn),5,5
COc1ccccc1C1CC(c2ccccc2F)=NN1C(=O)CN(C)c1ccccc1 (stereo not drawn),7,11
COCCn1c(SCC(=O)Nc2nnc(C)s2)nc2c(c1=O)SC(C)C2 (stereo not drawn),3,0
Cn1c(=O)[nH]c(=O)c2c1nc(SCCO)n2Cc1ccccc1Cl,1,-4
CCCc1cc(=O)[nH]c(N=C(N)Nc2ccccc2)n1,2,1
COc1cn(CC(=O)Nc2ccc3c(c2)OCCO3)c(CSc2nc(C)cs2)cc1=O,-6,-11
COc1ccc(NC(=O)N(CC(=O)N(Cc2ccc(F)cc2)Cc2ccco2)CC(C)C)c(OC)c1,-9,-8
CCOC(=O)NCCS(=O)(=O)N1CCN(c2ccccc2F)CC1,-1,-2
CC(C)Sc1nc2ccc(Br)cc2[nH]1,-7,-13
O=C(CCN(Cc1ccco1)c1nc(-c2ccccc2)nc2cc(Cl)ccc12)NCCN1CCOCC1,12,21
COC(C(=O)NCCc1noc(-c2ccccn2)n1)c1ccccc1 (stereo not drawn),2,0
COc1ccc(C(=O)Nn2cnc3c(cnn3C(C)(C)C)c2=O)cc1OC,3,2
COc1cn(CC(=O)Nc2ccc(F)cc2)c(CSc2nccn2C)cc1=O,-1,-9
FC(F)(F)c1cccc(-n2cnc3cnc(-c4cccc5ccccc45)cc32)c1,8,-1
COc1ccc(C(=O)Nc2ccc3oc(-c4ccc(Cl)c(Cl)c4)nc3c2)cc1[N+](=O)[O-],-6,-11
O=C(Cn1c(CO)cnc1SCc1ccc(Cl)cc1Cl)NC1CCCC1,7,2
Clc1ccccc1C1CC(c2ccc(Br)cc2)=Nc2nnnn21 (stereo not drawn),-7,-13
COc1cccc(C(NC(=O)C2CC2c2ccncc2)c2nccn2C)c1 (stereo not drawn),3,1
O=S(=O)(O)C1=C(c2ccccc2)OC(c2ccccc2)=CS1(=O)=O,17&-8,10&-8
CC(C)(C)C(=O)N1CCCC(OCc2ccc(OC(F)(F)F)cc2)C1 (stereo not drawn),-4,-2
CC(=O)Nc1ccc(CN(C)Cc2cc3cc(F)ccc3[nH]2)cc1,8,2
CCc1nc2ccc(C(=O)N(CC)CCN(C)C)cn2c1N(C)Cc1ccc(NC(C)=O)cc1,8,-7
Clc1ccc(Nc2nc(N3CCN(Cc4ccccc4)CC3)nc3nccnc23)cc1,-3,8
CC(C)Nc1n[nH]c(=S)s1,-3,-8
OC1(c2ccc(F)cc2)CN(c2ccccc2)C2=[N+]1CCCS2 (stereo not drawn),3,8
COc1cccc(COc2coc(CN3CCCN(S(=O)(=O)c4cc(F)c(F)cc4Cl)CC3)cc2=O)c1,21,9
O=C(CCc1ccccc1)NC(C(=O)N1CCOCC1)c1ccccc1 (stereo not drawn),15,6
CC(C)N1CCC(CNC(=O)c2cc(-c3ccsc3)n[nH]2)C1 (stereo not drawn),24,12
Cc1cccnc1CN1CCN(C(=O)CC2(c3ccc(-c4ccccc4)cc3)CC(=O)N(C)C2=O)CC1 (stereo not drawn),4,0
CCn1nnnc1SCC(=O)Nc1cccc(F)c1,1,-1
CCOC(=O)C1=C(C)N(CC)C(=S)NC1c1ccc(NC(=O)c2ccc([N+](=O)[O-])cc2Cl)cc1 (stereo not drawn),1,8
CN(C)c1ccc(N)cc1CN(CC1CCCO1)C(=O)c1ccccc1Cl (stereo not drawn),-2,-3
Clc1ccc(C2(c3nc(C4CCOC4)no3)CC2)cc1 (stereo not drawn),3,2
N#CC1C(=N)Oc2n[nH]c(-c3cccnc3)c2C1c1cc2c(cc1Br)OCO2 (stereo not drawn),8,6
COCCN(Cc1cccn1Cc1ccccc1Cl)C(=O)c1cc(C(F)(F)F)cc(C(F)(F)F)c1,-1,7
N#Cc1cccc(OC2CC3CCC(C2)N3C(=O)c2ccc(CSCc3ccccc3Cl)cc2)c1 (stereo not drawn),6,-1
Cc1nc2ccccn2c(=O)c1NC(=O)Nc1cc(Cl)ccc1Cl,-3,-3
Cc1ccc(O)c(NC(=O)c2cc3nc(-c4ccccc4)cc(C(F)(F)F)n3n2)c1,-9,-13
CC(NC(=O)CN1CCCN(CC(=O)NC(C)(C)C)CC1)C1CC1 (stereo not drawn),9,3
COc1cc(OC)cc(C(=O)N2CCCC(OCc3cccc(OC(F)(F)F)c3)C2)c1 (stereo not drawn),-5,-2

# Following part:
Compound,NPYLR7 agonist,NPYLR7 agonist max-min
CNS(=O)(=O)c1cc(C(=O)NC(C)(C)c2nc(C)c(C)s2)ccc1F,9,6
CCC(C)NC(=O)COC(=O)COc1ccc2ccccc2c1 (stereo not drawn),-5,-10
CCOC1(OCC)C(C#N)(C#N)C(C)(c2ccccc2)C1(OCC)OCC (stereo not drawn),7,7
Cc1ccc(NC(=O)N2CCCCC2CCN2CCCC2=O)c(C)c1 (stereo not drawn),4,2
CSc1[nH]c(=O)c(C(=O)N2CCC(C)C3CCCCC32)cc1C#N (stereo not drawn),5,3
Cc1ccc(-n2ncc3c(C)nn(Cc4ccccn4)c(=O)c32)c(C)c1,2,2
CCCCN(C=O)c1c(CC)nc2c(OCc3ccc(Cl)cc3)cccn12,-3,2
CCCNC(=O)c1cc(NC(=O)c2cccc3ccccc23)ccc1N1CCCCC1,-2,9
CC1CCCCN1c1ccc2cccc(OCC(=O)Nc3ccc(C(N)=O)cc3)c2n1 (stereo not drawn),1,2
COCCNC(=O)C(NC(=O)C1CCCC1)C1CCN(C(=O)c2ccc3c(c2)OCO3)CC1 (stereo not drawn),32,33
CC(=O)Nc1cccc(-c2nc3ccccc3c(=O)o2)c1,-6,-9

# A portion of the library (hit frequency here may not be typical).
